Screening results: PubChem BioAssay, National Center for Advancing Translational Sciences (NCATS)
NS1 inh – influenza NS1 inhibition; hit rate 0.4% among 270,000; Potency, µM (highest dose often 46.1 µM), inactives show at the top dose activity, positive = more growth; S. cerevisiae slowed by influenza A NS1, growth recovery by OD600; active means well fitted rising curve with a large enough effect; inconclusive means small, poorly fitted or top-dose-only effect; inactive means no such curve, though single readings can be large or run the other way; note: nearly all actives have a fitted effect of over 50% in size
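A cell-based growth assay was used: compounds that relieve NS1-induced slow growth of budding yeast raise OD600. Assay medium was yeast nitrogen base with ammonium sulphate and -URA supplement, pH 6.0, with 2% galactose.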
2A StopGo – FMDV 2A StopGo reporter, luciferase signal; human cells with a luciferase reporter of 2A StopGo recoding; control for the full effect not named in the record; Potency, µM (titrated, usually from 57.9 µM), inactives show at the highest dose signal change, negative = less light; hit rate 1.2% among 410,000; AID 1159524; active = well fitted falling curve with a large enough effect; inconclusive = small, poorly fitted or top-dose-only effect; inactive = no such curve, though single readings can be large or run the other way; tested in HEK293T cells; note: % is set by controls: 0 for no effect and ±100 for the full control effect; nearly all actives have a fitted effect of over 45% in size; luciferase light after 4 h
Cruzain inh Det – blocks cruzain activity in presence of Triton detergent; Potency, µM, for the others: max response, negative = inhibition, usual class: inhibitors; P25779; hit rate 0.43% among 200,000; purified cruzain, Z-FR-AMC fluorescence, 0.01% Triton;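 note: plate controls were neutral wells for no effect and buffer without enzyme for full effect; nearly all actives have a fitted effect of over 40% in size; top concentration of the series not given in the record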
Target sequence (P25779 123-467 limits assumed): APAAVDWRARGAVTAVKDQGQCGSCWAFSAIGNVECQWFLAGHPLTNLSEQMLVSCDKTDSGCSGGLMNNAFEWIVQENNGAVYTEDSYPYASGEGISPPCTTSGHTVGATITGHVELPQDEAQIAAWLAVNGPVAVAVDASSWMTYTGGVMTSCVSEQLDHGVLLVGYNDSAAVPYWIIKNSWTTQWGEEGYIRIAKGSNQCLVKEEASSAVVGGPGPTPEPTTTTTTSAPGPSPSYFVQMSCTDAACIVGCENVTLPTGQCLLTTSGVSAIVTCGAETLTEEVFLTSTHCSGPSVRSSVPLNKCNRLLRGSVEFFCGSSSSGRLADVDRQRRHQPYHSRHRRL
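Compounds were screened in titration against cruzain (1.5 nM) with 0.01% Triton X-100 to counter colloidal aggregation. Activity was the AMC fluorescence increase over 60 s after adding 2 uM Z-FR-AMC at pH 5.5.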
Cruzain inh noDet – blocks cruzain activity in detergent-free assay. P25779. purified cruzain, Z-FR-AMC fluorescence, no detergent. Potency, µM, for inactives: max response, negative = inhibition, usual class: inhibitors. hit rate 2.3% among 200,000. AID 1476;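 note: plate controls were enzyme without inhibitor for no effect and buffer without enzyme for full effect; nearly all actives have a fitted effect of over 40% in size; top concentration of the series not given in the record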
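Detergent-free condition (0.00005% Triton X-100) in acetate buffer pH 5.5 with DTT. 1.5 nM enzyme and compound were pre-mixed 15 min, then 2 uM Z-FR-AMC substrate added; reaction progress from fluorescence change between first and third reads (60 s).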
RE007 growth inh – less growth of the S. pombe RE007 Vpr strain; S. pombe RE007 Vpr strain, BacTiter-Glo ATP luminescence, 24 h; control for the full effect not named in the record; Potency, µM (series often up to 92.2 µM), for inactives: at the highest dose activity change, negative = less growth; hit rate 0.21% among 360,000; AID 651644; active = well fitted falling curve with a large enough effect; inconclusive = small, poorly fitted or top-dose-only effect; inactive = no such curve, though single readings can be large or run the other way;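 note: % is set by controls: 0 for no effect and ±100 for the full control effect; nearly all actives have a fitted effect of over 50% in size; the assay follows cell death caused by Vpr and the record does not say whether a fall means rescue or toxicity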
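Fission yeast RE007 carrying one integrated HIV-1 vpr copy, seeded at OD 0.01 in PMG+AL medium with 23 nL pinned compound. Grown 24 h at 30 degrees; viability read by BacTiter-Glo luminescence after 5 min.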
Marburg entry inh – inhibitors of Marburg virus binding or cell entry; hit rate 1.8% among 300,000; Potency, µM (top dose mostly 37.8 µM), for the others: at the top dose activity change, negative = inhibition, usual class: inhibitors; AID 540276; Marburg virus pseudotyped entry inhibition, cell reporter; control for the full effect not named in the record; about a third of the inactives were read at about 46 µM; active = well fitted inhibition curve with a large enough effect; inconclusive = small, poorly fitted or top-dose-only effect, or effect the other way; inactive = flat fitted curve, though single readings scatter; tested in HEK293 cells; about a fifth of its hits are not listed in these tables; note: % is set by controls: 0 for no effect and ±100 for the full control effect; luciferase read-out
Lassa entry inh – Lassa virus entry inhibition; Lassa virus pseudotype entry inhibition, cell reporter; control for the full effect not named in the record; Potency, µM (doses to about 37.9 µM), for inactives: at the top dose activity change, negative = inhibition, usual class: inhibitors; AID 540256; hit rate 1.2% among 300,000; active means well fitted inhibition curve with a large enough effect; inconclusive means small, poorly fitted or top-dose-only effect, or effect the other way; inactive means flat fitted curve, though single readings scatter; tested in HEK293 cells; note: % is set by controls: 0 for no effect and ±100 for the full control effect; nearly all actives have a fitted effect of over 50% in size; luciferase read-out
SARS PLpro yeast – SARS-CoV PLP inhibition in yeast; S. cerevisiae expressing SARS-CoV PLpro, growth rescue; control for the full effect not named in the record; Potency, µM (top dose mostly 32.9 µM), inactives show at the top dose activity, positive = growth rescue; hit rate 0.19% among 330,000; AID 485353; active means well fitted rising curve with a large enough effect; inconclusive means small, poorly fitted or top-dose-only effect; inactive means no such curve, though single readings can be large or run the other way; note: 0% is about no effect; nearly all actives have a fitted effect of over 55% in size; growth read by luminescence after 48 h
Active calls of the source: *; ? = inconclusive; / = no result given; & = joins results of further samples; [ ] = dose if it differs, or a comment. Unless noted, calls come from the whole dose curve; as a rule, active = well fitted curve in the direction sought with a large enough effect; inconclusive = small, poorly fitted or top-dose-only effect, or another doubt; inactive = no such curve, though single readings can be large; an effect the other way counts as inactive or inconclusive. Potency is the fitted concentration of half-maximal effect.

item | canonical_smiles | NS1 inh | 2A StopGo | Cruzain inh Det | Cruzain inh noDet | RE007 growth inh | Marburg entry inh | Lassa entry inh | SARS PLpro yeast
1 | CCOC(=O)c1c(C)[nH]c(N=Nc2ccc(C)cc2C)c1C | 6% | 53%[activator] | -3.7% | 21% | -3% | ? | 8% | 2%
2 | Cc1cc(C(F)(F)F)c2c(N)c(C(=O)Nc3c(Cl)cccc3Cl)sc2n1 | / | -26% | -4.4% | -8% | / | / | 1%[46.1 µM] | /
3 | CC(=O)NCCn1c(SCC(=O)NCCc2ccc(S(N)(=O)=O)cc2)nc2ccccc2c1=O | / | -8% | / | / | 11% | 4%[46.1 µM] | -10%[46.1 µM] | -1%
4 | Cc1ccc(N=Cc2cccc(O)c2O)c(C)c1 | -57% | / | 5.0% | -8% | / | 0% | / | -15%
5 | C=CCn1c(-c2ccoc2)n[nH]c1=S | 3% | -12% | 3.1% | -6% | 9% | 16% | 15% | 5%
6 | Cc1cccc(CSc2nnc(-c3ccco3)o2)c1 | -60% | 40%[activator] | / | / | ? | / | / | -1%
7 | CCN(CC(=O)Nc1ccccc1OC)C(=O)CN1C(=O)NC(C)(c2ccccc2)C1=O (stereo not given) | / | -2% | / | / | -25% | 15% | 7% | 2%
8 | Cc1nnc(NC(=O)CSc2nc3c([nH]c4ccccc43)c(=O)n2-c2ccc(Cl)cc2)s1 | / | -28% | -1.5% | -5% | / | / | 1%[46.1 µM] | /
9 | CC1CCCCC1NCC(=O)Nc1ccccc1C(=O)Nc1ccccc1 (stereo not given) | / | -13% | / | / | -3% | -5% | -15% | -2%
10 | COc1ccc(NC(=O)c2ccc3c(c2)OCO3)cc1Cl | -35% | 23% | 3.8% | 4% | 1% | ? | ? | 0%
11 | C=CCNC(=O)/C(C#N)=C/c1cn(-c2ccccc2)nc1-c1ccc(OC)c([N+](=O)[O-])c1 | ? | 0% | -10% | ? | -22% | 9% | -6% | 23%
12 | O=S1(=O)N=C(N(CCO)/N=C/c2ccccc2F)c2ccccc21 | -2% | -10% | / | / | -8% | -16%[46.1 µM] | -21%[46.1 µM] | 1%
13 | CCCCN(C)c1nnc(NC(=O)Nc2ccc(Br)c(C)c2)s1 | / | 0% | -3.8% | -2% | / | 7%[46.1 µM] | 6%[46.1 µM] | /
14 | CC1(C)SC(=S)N(Cc2ccc3c(c2)OCO3)C1N(O)C(=O)NC1CCCCC1 (stereo not given) | -15% | -22% | 0.0% | -9% | 11% | -7% | -16% | -15%
15 | Cc1ccc(NC(=O)CN2CCOCC2)cc1S(=O)(=O)N1CCCCC1 | / | 8% | / | / | 12% | -18% | ? | ?
16 | COc1ccc(-c2cc(O)cc(O)c2)cc1 | -9% | -6% | -6.5% | -11% | -2% | -9% | -29% | -5%
17 | O=C(NNC(=S)NC1CC2CCC1C2)c1ccc(Cl)cc1 (stereo not given) | -4% | 14% | / | / | 3% | ? | -5%[46.1 µM] | 1%
18 | COc1ccc(OCCCn2c(=O)oc3ccccc32)cc1 | -4% | 16% | -2.2% | -17% | -19% | 8% | 22% | 6%
19 | Cc1cccc(-c2nnc(SCC(=O)NC3CC3)n2C)c1 | -9% | -4% | / | / | -3% | 4%[46.1 µM] | 10%[46.1 µM] | -3%
20 | Cc1ccc(CCN2CC(C(=O)NCc3ccco3)CC2=O)cc1 (stereo not given) | ? | -16% | 5.3% | -7% | 2% | -6% | -8% | 3%
21 | Cc1cccc(NC(=S)NCC23C=CC(O2)C2C(=O)N(c4ccc(Cl)cc4)C(=O)C23)c1 (stereo not given) | -5% | -19% | -16% | -8% | 3.5µM* | ? | 0% | -83%
22 | CN1CCC(N(C)C(=O)c2cccc(S(=O)(=O)N3CCc4ccccc43)c2)CC1 | / | -9% | / | / | -16% | -30%[46.1 µM] | 4%[46.1 µM] | -13%
23 | O=S1(=O)[C@H]2C[C@@H]3C=C[C@@]2(CN1Cc1cccc(C(F)(F)F)c1)O3 | -6% | 11% | / | / | 6% | / | / | 1%
24 | CCOc1ccc(-n2nnnc2SCC(=O)c2ccccc2)cc1 | -5% | 13% | -3.4% | 13% | 4% | -8% | ? | 1%
25 | CC(=O)c1cc(C#N)c(NCc2ccccc2)nc1C | 3% | 14% | / | / | 7% | -2%[46.1 µM] | 8% | -1%
26 | CC1(C)COC(c2cc([N+](=O)[O-])ccc2Cl)=N1 | -2% | -21% | 4.4% | 9% | -15% | -5% | 9% | 2%
27 | Cc1ccc(OCCn2c(COc3ccc(Cl)cc3)nc3ccccc32)cc1 | / | 0% | -4.4% | 15% | / | -16%[46.1 µM] | 13%[46.1 µM] | /
28 | CCC(C(=O)Nc1ncn[nH]1)(C(F)(F)F)C(F)(F)F | ? | -12% | 2.5% | -2% | 0% | 45% | 5% | 1%
29 | Cc1ccc(S(=O)(=O)c2nnn3c2nc(NCCc2ccccc2)c2sccc23)cc1 | / | -12% | 0.0% | 0% | / | / | -2%[46.1 µM] | /
30 | Cc1nc2ccc(S(=O)(=O)N(CC(=O)Nc3ccc(Cl)cc3)Cc3ccccc3)cc2s1 | / | -23% | -5.7% | 6% | / | / | ? | /
31 | COc1ccc(-c2noc(CCC(=O)Nc3cccnc3)n2)cc1 | -5% | 0% | / | / | -5% | / | / | 0%
32 | CSc1ncnc2ncn(C)c12 | / | -17% | / | / | 4% | -1%[46.1 µM] | -29%[46.1 µM] | /
33 | CCCN1C2CCCC1CC(NC(=O)c1cccc(OC)c1)C2 (stereo not given) | -24% | -9% | / | / | 2% | ? | 10% | -4%
34 | CC1CCCCC1NC(=O)CSc1nncn1N (stereo not given) | -1% | -11% | / | / | 5% | 25%[46.1 µM] | 17% | 2%
35 | Cc1oc(-c2cccs2)nc1CS(=O)CC(=O)NCCCOC(C)C (stereo not given) | 7% | -1% | 0.8% | -11% | 11% | 16% | 2% | -9%
36 | Cc1cc(C)c(NC(=O)CS)c(Cl)c1 | ? | -19% | / | / | 13% | -27%[46.1 µM] | -3%[46.1 µM] | 1%
37 | COC(=O)C1=CN(Cc2ccccc2)C=C(C(=O)OC)C1c1ccc(O)c(OC)c1 | 7% | -21% | / | / | 6% | / | / | 4%
38 | Cc1cccc(NC2=CC(c3cccc(Br)c3)N(c3cccc(C)c3)C2=O)c1 (stereo not given) | / | -19% | -11% | ? | / | 11%[46.1 µM] | 22%[46.1 µM] | /
39 | CN(C)C(CN=C1NS(=O)(=O)c2ccccc21)c1ccco1 (stereo not given) | -2% | 24% | / | / | -3% | 0%[46.1 µM] | -9%[46.1 µM] | -1%
40 | CC(C)CC1(C)NC(=O)N(CC(=O)Nc2cccc(S(=O)(=O)N(C)c3ccccc3)c2)C1=O (stereo not given) | 2% | -29% | / | / | 3% | ? | 0% | 0%
41 | COc1ccc(Cc2nnc(SCC(=O)NCC3CCCO3)o2)cc1 (stereo not given) | -4% | / | 1.6% | -4% | -8% | 7% | -4% | 7%
42 | COc1ccccc1OCC(=O)Nc1cccc(C(=O)N2CCOCC2)c1 | -7% | -8% | 3.2% | 10% | -7% | 10% | 0% | -3%
43 | N#Cc1ccccc1NC(=O)COC(=O)c1cccs1 | / | 22% | / | / | -10% | 1% | -4% | 1%
44 | CN(C)N=O | / | -13% | -4.0% | 3% | 3% | / | / | -3%
45 | Cc1ccc(NCc2nnc(SCC#N)o2)c(C)c1 | 4% | / | 0.5% | -2% | 10% | 0% | 16% | 8%
46 | CCC(CC)C(=O)Nc1nnc(S(=O)(=O)N2CCCCCC2)s1 | 21% | -7%&0% | -1.1% | 2% | -7% | / | -2%[46.1 µM] | 2%
47 | Cc1ccc(CSCC(=O)NCc2cccs2)cc1 | / | -13% | / | / | 3% | 10% | 17% | -2%
48 | Cc1cc(NC(=O)c2ccc(S(=O)(=O)N3CCCC3)cc2)nc2c1c(=O)oc1ccccc12 | -30% | -22% | 2.4% | ? | 26% | ? | -4% | ?
49 | CCOC(=O)C1(CCCc2ccccc2)CCN(CCCn2cccn2)CC1 | 1% | -17% | / | / | 14% | / | / | 0%
50 | CN1CCN(NC(=O)CN2C(=O)/C(=C/c3ccccc3Cl)SC2=S)CC1 | 13% | 12% | -4.2% | -7% | 14% | -3% | -27%[14.3 µM] | -4%

Brought forward from above: 2 entries, then new ones.
item | canonical_smiles | NS1 inh | 2A StopGo | Cruzain inh Det | Cruzain inh noDet | RE007 growth inh | Marburg entry inh | Lassa entry inh | SARS PLpro yeast
49 | CCOC(=O)C1(CCCc2ccccc2)CCN(CCCn2cccn2)CC1 | 1% | -17% | / | / | 14% | / | / | 0%
50 | CN1CCN(NC(=O)CN2C(=O)/C(=C/c3ccccc3Cl)SC2=S)CC1 | 13% | 12% | -4.2% | -7% | 14% | -3% | -27%[14.3 µM] | -4%
51 | CCc1cc2cc(C(=O)N3CCN(Cc4ccccc4)CC3)sc2s1 | -41% | -18% | -2.1% | 1% | -6% | -6% | -25% | /
52 | CCOc1ccc2c(c1)C(C)=CC(C)(C)N2S(=O)(=O)c1ccc(F)cc1 | -56% | -23% | / | / | -5% | / | / | -4%
53 | Cc1cccc(CSC2=NCCN2C(=O)c2ccco2)c1 | -187% | 0% | -0.9% | -9% | -14% | / | / | -18%
54 | O=C(NCc1ccco1)Nc1cccc(-c2ccccc2)c1 | / | 5% | / | / | 13% | -20%[46.1 µM] | 11%[46.1 µM] | /
55 | COc1ccc(S(=O)(=O)N2CCN(Cc3ccccc3)CC2)cc1 | -13% | -13% | 2.1% | -12% | -2% | 8% | ? | 2%
56 | CCN(CC)CCNCc1ccc(-c2ccc(Cl)cc2)o1 | -10% | / | -0.7% | -13% | -3% | ? | ? | 0%
57 | O=C(NCCS(=O)(=O)N1CCN(c2ccc(F)cc2)CC1)C(c1ccccc1)c1ccccc1 | / | -8% | -6.0% | ? | / | / | -20%[46.1 µM] | /
58 | O=C(NCCc1ccc(F)cc1)c1ccc([N+](=O)[O-])cc1 | -3% | 38%[activator] | / | / | 0% | 9% | -18% | -1%
59 | CC1=C(C(=O)OC2CCCCC2)C(c2ccc(C)o2)C2=C(CCCC2=O)N1 (stereo not given) | -113% | -5% | -5.9% | ? | 0% | ? | ? | 2%
